Rango-impB inh: qHTS Assay for Inhibitors of Rango (Ran-regulated importin-beta cargo) - Importin beta complex formation | AID 540263, 2011 | Rango CFP/YFP FRET sensor + importin beta, 45 min | actives 0.031% (n = 340,000) | Potency, µM (top dose mostly 92.2 µM), inactives show at the top dose inhibition of complex formation; active = rising FRET ratio curve, often small or poorly fitted; inconclusive = mostly compound fluorescence or quenching in the first reads; inactive = flat curves in all reads;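 also: potency is read from the fitted curve at half-maximal effect; 0% = DMSO wells and 100% = buffer wells lacking importin beta; nearly all actives have a fitted effect of over 15% in size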
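Inhibition scored from the CFP 486 nm/YFP 530 nm FRET ratio 45 min after adding 0.125 microM importin beta to 50 nM Rango biosensor preincubated 5 min with compound (room temperature, PBS with DTT, Tween-20, BSA). No-importin wells as positive control.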
Rango release inh: qHTS Assay for Inhibitors of RanGTP induced Rango (Ran-regulated importin-beta cargo) - Importin beta complex dissociation | actives 0.071% (n = 340,000) | Snurportin-1 (Homo sapiens) + GTP-binding nuclear protein Ran (Homo sapiens) + Importin … | Potency, µM (top dose mostly 46.1 µM), inactives show top-dose activity change, negative = inhibition | Biochemical FRET Rango-importin beta, RanGTP-induced dissociation | AID 540253, 2011; active means falling FRET ratio curve, often poorly fitted, with flat reads before Ran was added; inconclusive means other falling curves, or compound fluorescence or quenching; inactive means flat or rising ratio curve;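 also: potency is read from the fitted curve at half-maximal effect; % of control where 0% means no effect; nearly all actives have a fitted effect of over 45% in size; -100% = wells without RanGTP and RCC1; the record marks most hits as doubtful in a second field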
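Rango (0.1 uM)–importin beta (0.25 uM) complex; RanGTP-RCC1 trigger; 45 min RT; CFP/YFP FRET read.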
GLA inh pH 4.5: qHTS Assay for Inhibitors of Human alpha-Galactosidase at pH 4.5; AID 1467, 2008; activity change, negative = inhibition, % at 105 µM; purified enzyme, 4-MU-alpha-Gal fluorescence, pH 4.5; 230,000 tested, under 10 active; Alpha-galactosidase A (Homo sapiens), P06280; inconclusive = small, poorly fitted or top-dose-only inhibition, or a rising curve; inactive = flat fitted curve, though single readings scatter; no compound was filed as active;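 also: 0% = full activity with enzyme and -100% = basal without enzyme; dose as in the result columns while the protocol names 77 µM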
Target sequence (P06280 whole entry, looked up): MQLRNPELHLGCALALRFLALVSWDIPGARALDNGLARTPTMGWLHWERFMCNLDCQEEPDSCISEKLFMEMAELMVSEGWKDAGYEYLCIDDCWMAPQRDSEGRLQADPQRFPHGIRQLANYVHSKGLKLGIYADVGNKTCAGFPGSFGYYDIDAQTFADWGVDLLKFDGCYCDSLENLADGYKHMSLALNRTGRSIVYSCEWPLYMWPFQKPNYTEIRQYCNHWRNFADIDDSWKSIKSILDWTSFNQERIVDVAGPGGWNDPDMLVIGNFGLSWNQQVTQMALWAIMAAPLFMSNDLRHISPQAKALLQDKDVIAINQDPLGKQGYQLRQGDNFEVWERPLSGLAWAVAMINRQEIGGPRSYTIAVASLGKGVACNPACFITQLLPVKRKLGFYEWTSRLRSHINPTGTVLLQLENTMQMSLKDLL
miR-21 reporter: qHTS Assay for Modulators of miRNAs and/orActivators of miR-21; HeLa miR-21 FLuc reporter, luciferase, 48 h; Potency, µM (series often up to 38.3 µM), inactives show at the highest dose reporter change, positive = more light; 340,000 tested, under 10 active; active = well fitted rising curve with a large enough effect; inconclusive = small, poorly fitted or top-dose-only effect; inactive = no such curve, though single readings can be large or run the other way;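 also: % of control where 0% means no effect; miR-21 action dims this reporter so a rising signal means less miR-21 action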
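HeLa miR-21-FLuc reporter line, endogenous miR-21; 2000 cells/well in DMEM/10% FBS; compound titration up to ~40uM final, 48 h, 37 degree Celsius; luciferase detection reagent, 15 min lysis, CCD luminescence.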
The depositor's hits bear a star; u = inconclusive; x = no result given; & = joins results of further samples.

SMILES	Rango-impB inh	Rango release inh	GLA inh pH 4.5	miR-21 reporter
CCc1ccc(NC(=O)C(=S)NC2CCCCC2)cc1	1.1%	3%	-7	-27%
O=C(Nc1ccc2c(c1)Cc1ccccc1-2)c1ccco1	0.5%	-8%	2	-55%
CC(C)(C)NCc1cccn1-c1sc2c(c1C#N)CCCC2	-1.7%	-3%	-7	-4%
O=C(NCc1ccco1)C1CCCN1S(=O)(=O)c1ccccc1C(F)(F)F (stereo not drawn)	-2.1%	-11%	-2	6%
O=C(COC(=O)C1CC(=O)N(c2ccccc2)C1)c1ccccc1 (stereo not drawn)	0.7%	8%	-3	-4%
Cc1ccccc1OCC(=O)N/N=C1\CCOc2c(C)cccc21	1.8%	-2%	-2	-7%
O=C(CSCc1ccccc1)Nc1ccc(S(=O)(=O)Nc2ncccn2)cc1	0.1%	5%	x	-7%
COc1ccc(CNC(=S)Nc2cc(C)ccc2C)cc1	6.2%	1%	3	-6%
COc1cc(C(=O)NNC(=O)c2n[nH]c3ccccc23)cc(OC)c1OC	0.2%	7%	x	x
CCOC(=O)C1(CCCc2ccccc2)CCN(C(=O)C2CCCO2)CC1 (stereo not drawn)	5.3%	-4%	13	-1%
COc1cc(NC(C)=O)ccc1NC(=O)c1cc2ccccc2o1	-4.9%	5%	x	-32%
O=c1[nH]cnc2scc(C3COc4ccccc4O3)c12 (stereo not drawn)	1.6%	11%	0	-44%
Cc1nc(-c2ccc(Cl)cc2)sc1C(=O)NN	-0.7%	1%	1	-10%
CSc1ccccc1-n1nnnc1SCC(=O)NCc1cccs1	0.0%	0%	-10	-11%
O=C(CCn1c(=O)oc2ccccc21)NCCC1=CCCCC1	0.2%	-10%	1	-15%
COc1cccc(NC(=O)CSc2ncnc3c2oc2ccccc23)c1	-6.3%	17%	-7	-1%
O=C1c2ccccc2-c2ccc(C(=O)N3CCCCC3)cc21	2.5%	3%	-6	-52%
CCCCC(CC)CN1C(=O)/C(=C/c2ccncc2)SC1=S (stereo not drawn)	3.7%	-12%	-7	0%
O=C(CSc1nnc(CNC(=O)c2cccs2)o1)Nc1ccc(Cl)cc1	1.5%	-4%	x	4%
COc1cc2c(cc1OC)C(c1ccc(Cl)cc1)CC(=O)N2 (stereo not drawn)	-0.6%	1%	x	-11%
CCn1c(CC(=O)Nc2ccc(F)cc2)nnc1SCC(=O)Nc1nncs1	-2.5%	4%	x	-3%
CCc1ccc(C(=O)CN2CCSC2=N)cc1	0.2%	-6%	8	-45%
CC(C)=CCCC1=CCC(/C(C)=N/NC(N)=O)CC1 (stereo not drawn)	0.4%	4%	-8	-7%
COc1ccc2[nH]c(C(=O)O)c(CCC(=O)O)c2c1	0.6%	4%	-19	-2%
Cc1nn(C)c(=O)n1-c1ccccc1	-0.3%	-7%	8	-2%
Cc1nn(C(=O)CCCC(=O)NCc2ccccc2)c2ccccc12	-8.6%	-28%	x	6%
CCC(c1nnnn1Cc1cccs1)N1CCN(c2nc3ccccc3s2)CC1 (stereo not drawn)	-0.5%	-2%	2	22%
Cc1ccc(Nc2ncc3c(n2)CC(c2ccco2)CC3=O)c(C)c1 (stereo not drawn)	4.0%	-9%	3	-11%
O=C(CN1CCN(C(=O)c2cccc(F)c2)CC1)Nc1ccccc1F	2.3%	13%	-6	-6%
COCc1cc(=O)n2c([nH]c3ccccc32)c1C#N	u	u	u	-14%
CCOC(=O)c1ccccc1OCc1cc(/C=N/NC(=O)c2cccnc2)ccc1OC	0.3%	1%	-11	24%
CCc1ccc(CNC(=O)CCc2cn(C)c3ccccc23)cc1	0.7%	0%	x	-3%
O=C(N/N=C1\C2CN3CCN(C2)CC1(c1ccccc1)C3)Nc1ccccc1	-5.4%	11%	-23	-3%
CN(CC(=O)Nc1ccc(F)cc1)C(=O)COC(=O)c1ccc(=O)n(Cc2ccccc2)n1	-0.8%	-10%	x	x
Cc1cc(NC(=O)CSc2nc3cc(Cl)ccc3c(=O)n2C(C)C)no1	3.1%	5%	x	x
CCCCc1n[nH]c2c1/C(=N/O)CC(C)(C)C2	0.6%	-8%	-16	-11%
CCC(C)NC(=O)[C@H]1N2C(=O)c3ccccc3C2SC1(C)C (stereo partly drawn)	-0.1%	-3%	x	-3%
COC(=O)c1ccc(Cc2ccccc2)o1	-0.2%	-4%	1	-3%
Cc1cc2n(n1)C(c1sccc1C)Nc1ccccc1-2 (stereo not drawn)	4.0%	1%	-2	-16%
O=C1C2C3C=CC(O3)C2C(=O)N1CC(O)c1ccccc1 (stereo not drawn)	-1.4%	-12%	-3	-3%
CN1/C(=C\C(=O)COc2ccc3c(c2)OCO3)C(C)(C)c2ccccc21	3.4%	-19%	-9	3%
COc1ccc(OC)c(Nc2nc(-c3cccc([N+](=O)[O-])c3)nc3ccccc23)c1	2.0%	-14%	-28	0%
O=C(COc1cccnc1[N+](=O)[O-])Nc1ccc(Cl)cc1F	1.4%	25%	x	x
COc1cccc(/C=N/NC(=O)CN2C(=O)NC3NC(=O)NC32)c1 (stereo not drawn)	9.1%	17%	4	-1%
O=C(Nc1ccccc1Cl)Oc1ccc(Cl)cc1Cl	4.2%	22%	-5	-15%

A different layout for 3 compounds above.
> CCC(C)NC(=O)[C@H]1N2C(=O)c3ccccc3C2SC1(C)C (stereo partly drawn)
  Rango-impB inh: -0.1%	Rango release inh: -3%	GLA inh pH 4.5: x	miR-21 reporter: -3%
> COC(=O)c1ccc(Cc2ccccc2)o1
  Rango-impB inh: -0.2%	Rango release inh: -4%	GLA inh pH 4.5: 1	miR-21 reporter: -3%
> Cc1cc2n(n1)C(c1sccc1C)Nc1ccccc1-2 (stereo not drawn)
  Rango-impB inh: 4.0%	Rango release inh: 1%	GLA inh pH 4.5: -2	miR-21 reporter: -16%

The results go on.
SMILES	Rango-impB inh	Rango release inh	GLA inh pH 4.5	miR-21 reporter
Cc1cccc(C)c1NC(=O)Nc1ccc(S(N)(=O)=O)cc1	0.2%	43%	-5	u
COC(=O)c1cc(C(=O)N(Cc2ccccc2)c2ccccn2)cc([N+](=O)[O-])c1	-1.6%	0%	6	-4%
CC(=O)NC(Cc1c[nH]c2ccccc12)C(=O)N/N=C/c1ccccc1 (stereo not drawn)	u	0%	3	-4%
CCOc1ccc(CCNC(=O)c2cc3ccccn3n2)cc1OCC	1.0%	0%	-1	7%
COCCn1c(SCC(=O)Nc2cc(C)on2)nnc1-c1ccccc1	6.0%	3%	x	1%
O=C1CCCC2=C1C(c1cn(-c3ccccc3)nc1-c1cccs1)c1c([nH]c(=O)[nH]c1=O)N2 (stereo not drawn)	u	-13%	11	-2%
O=[N+]([O-])c1ccc(COc2ccc(CN3CCOCC3)cc2)cc1	0.6%	-5%	x	x
CCCN=C1NC(=O)C(CC(=O)NCCc2ccccc2)S1 (stereo not drawn)	-0.7%	-8%	1	-1%
COc1ccc(N(CC(=O)NCc2ccco2)C(=O)CCC(=O)Nc2nccs2)cc1	-3.1%	-13%	x	-2%
COc1ccc(/C=C(/NC(=O)c2ccc(C)cc2)c2nc3ccccc3[nH]2)cc1OC	3.4%	-6%	-2	-4%
CC1CCCN(C(=O)c2cc(N3C(=O)C4C5CCC(C5)C4C3=O)ccc2Cl)C1 (stereo not drawn)	x	x	4	6%
Cc1ccc(C(=O)Nc2cccc(-c3ccc(N4CCOCC4)nn3)c2)cc1C	-1.1%	-7%	x	x
Cc1nc2ccc(F)cc2cc1C(=O)NCc1ccco1	0.6%	1%	8	-8%
O=C(O)c1ccc(NC(=S)Nc2ccc(S(=O)(=O)Nc3ccccn3)cc2)cc1	0.7%	18%	x	x
COC(=O)c1c(-c2ccccc2)noc1C	3.5%	2%	-6	-1%
Cc1cc(C)nc(NC(=O)c2cccc([N+](=O)[O-])c2)c1	3.9%	2%	1	-11%
CCOc1ccc(N2C(=O)C(=O)/C(=C(/O)c3ccccc3)C2c2ccccc2[N+](=O)[O-])cc1 (stereo not drawn)	-2.2%	-23%	2	-20%
Cc1cccc(C(=O)N2CCCC(N3CCN(c4ccccc4F)CC3)C2)n1 (stereo not drawn)	-1.2%	-7%	x	-5%
COc1cc(SC)ccc1C(=O)N(CC(=O)Nc1ccccc1Br)Cc1ccco1	3.9%	-1%	x	x
O=C(O)CCCCCNCc1c(Cl)cccc1Cl	0.1%	-3%	3	0%
Cc1cccc(N2CCN(C(=O)CCn3c(=O)[nH]c4ccsc4c3=O)CC2C)c1 (stereo not drawn)	-0.1%	-22%	x	11%
CNC(=O)/C(C#N)=C/c1cccc(Oc2ccccc2)c1	0.4%	2%	4	0%
COc1cccc(OC)c1Nc1nc(C)nc2c1nnn2Cc1ccccc1Cl	-4.4%	-9%	0	0%
O=C(c1ccco1)N1CCN(C(=O)c2ccccc2OCc2ccccc2)CC1	0.8%	9%	x	x
COc1ccc(Cc2nnc(N/N=C/c3ccc(C)o3)[nH]c2=O)cc1	-0.4%	8%	-4	-2%
CCc1cc(=O)oc2c(C)c(OC(C)C(=O)N3CCC[C@@H]3C(=O)O)ccc12 (stereo partly drawn)	2.6%	3%	x	-2%
N#Cc1ccc(Nc2ccccc2)c(N)c1	-0.4%	24%	-4	-1%
Cc1ccc2nc(Cl)cc(=O)n2c1	0.3%	1%	x	x
O=C(CNC(=O)c1ccc(Br)o1)NCc1ccc(F)cc1	0.1%	1%	x	0%
O=C(COC(=O)c1ccccc1OCC(=O)Nc1ccc(Br)cc1)Nc1ccccc1	0.1%	-4%	-3	-4%

Complete entries, quoted from the list.
O=C(COc1cccnc1[N+](=O)[O-])Nc1ccc(Cl)cc1F in the list: Rango-impB inh = 1.4%; Rango release inh = 25%; GLA inh pH 4.5 = x; miR-21 reporter = x
Cc1ccccc1OCC(=O)N/N=C1\CCOc2c(C)cccc21 in the list: Rango-impB inh = 1.8%; Rango release inh = -2%; GLA inh pH 4.5 = -2; miR-21 reporter = -7%

Carrying on:
SMILES	Rango-impB inh	Rango release inh	GLA inh pH 4.5	miR-21 reporter
S=C(NCc1ccco1)N1CCN(C/C=C/c2ccccc2)CC1	-2.3%	11%	1	1%
O=C(c1ccc(N2CCOCC2)c([N+](=O)[O-])c1)N1CCN(c2ccccc2)CC1	1.9%	0%	x	x
CCCNS(=O)(=O)c1ccc2c(c1)n(C)c(=O)n2C	-1.9%	4%	13	-1%
O=C1c2ccccc2S(=O)(=O)c2cc(N3CCOCC3)ccc21	u	u	x	x
COc1cc(NC(=O)CCc2ccccc2)c(C(=O)O)cc1OC	-0.1%	1%	-2	0%
CCOc1cc(C2NC(=O)c3ccccc3O2)ccc1OC(C)C (stereo not drawn)	0.2%	4%	x	4%
CCN1CCN(CC(=O)Nc2cc(S(=O)(=O)N3CCCCC3)ccc2Cl)CC1	-0.2%	-6%	x	x
CCN1C(=NCC(C)C)N[C@@H](CCc2ccccc2)[C@H](C(=O)NCC(C)C)[C@H]1C	-3.7%	26%	x	4%&0%
CCOc1cccc(CNCCO)c1OCc1ccc(Cl)cc1Cl	-6.6%	21%	-4	8%
CCC(CC)CN1CCC(CN2C(=S)NC[C@@H]2CC(C)C)CC1	-1.0%	27%	x	x
CC(C)(C)c1ccc(/C=C2\Oc3c(ccc(O)c3CN3CCN(CCO)CC3)C2=O)cc1	u	u	-14	-16%
COc1cc(Cl)c(CN2CCCC(CO)(Cc3cccc(Cl)c3)C2)cc1OC (stereo not drawn)	-1.8%	-6%	x	15%
CN(CC(=O)NC1CCCCC1)S(=O)(=O)c1cccc2nsnc12	6.0%	2%	1	-6%
CCOC(=O)c1cnc2c(ccc3ccccc32)c1NCCN(C)C	-4.6%	5%	x	-12%
COc1ccc(/C=N/NC(=O)CSc2ccccn2)cc1OC	1.1%	-10%	-3	-30%
CN(C1CC(C)(C)N(O)C(C)(C)C1)S(=O)(=O)CC12CCC(CC1=O)C2(C)C (stereo not drawn)	-3.9%	-1%	-18	-6%
CCN(CC)S(=O)(=O)c1cccc(C(=O)N/N=C2\CC(=O)CC(C)(C)C2)c1	u	u	-15	3%
CC(C)(CN1CCN(Cc2ccccc2)CC1)NS(=O)(=O)c1ccccc1	-4.1%	18%	-4	10%

The list is partial; the hit share may differ from the screen's.
